Bioassay records from PubChem.
Sa growth 42C: blocks Staphylococcus aureus growth. actives 0.53% (n = 170,000). S. aureus RN4220 growth, OD600, 20 h, 42 °C; active compounds read low. relative growth, % (test concentration not listed);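 active = growth at 42 °C up to 50% and 20 or more points under that at 30 °C, or under 10% at both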;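 note: 300 nL library stock went into each well; scaled to the means of positive and negative controls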
GIV Gai3 FP: inhibitors of GIV GBA-motif binding to rat Galpha-i3; P08753; Galpha-i3/FITC-GIV peptide fluorescence polarization, 90 min; active compounds read low; scaled: aluminum fluoride 0%, vehicle 100%; percent of control (FP), % (concentration not given with the values); actives 0.42% (n = 210,000); AID 1224905;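 active = replicate mean at 85% of control or lower, very high polarization wells dropped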;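 note: wells of about 15 µL received 100 nL stock; the first replicate is given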
Target sequence (P08753 whole entry, looked up): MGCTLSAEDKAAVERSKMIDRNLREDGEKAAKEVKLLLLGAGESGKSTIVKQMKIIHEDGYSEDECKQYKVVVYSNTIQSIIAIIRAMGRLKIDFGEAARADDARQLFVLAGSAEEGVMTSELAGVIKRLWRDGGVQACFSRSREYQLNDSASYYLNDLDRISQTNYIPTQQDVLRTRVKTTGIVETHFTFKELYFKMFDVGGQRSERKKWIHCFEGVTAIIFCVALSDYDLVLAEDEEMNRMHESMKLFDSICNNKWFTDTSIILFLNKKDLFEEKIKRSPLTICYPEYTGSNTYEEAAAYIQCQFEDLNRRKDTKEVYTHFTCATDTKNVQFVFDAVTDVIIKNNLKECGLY
HCMV UL50-53 inh: cytomegalovirus nuclear egress complex inhibition; AID 1918969; HTRF UL50-UL53 interaction, normalized percent inhibition; inhibition, % (test concentration not listed); actives 0.15% (n = 190,000);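 active = both replicates at 50% or more, plus weaker picks with an unusually low signal ratio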;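 note: stock transfer was 100 nL into about 20 µL; 0% = negative control wells and 100% = wells with untagged competitor protein; inactives centre near -12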
Sa growth 42C second temp: second read-out of Sa growth 42C, no call of its own (marks repeat the call); relative growth, %; measured here: growth at 30 °C;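 optical density after 20 h as mean of two plates; 100% = untreated growth and lower means inhibition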
The depositor's hits bear a star; · = no result given; & = joins results of further samples.

SMILES	Sa growth 42C	Sa growth 42C second temp	GIV Gai3 FP	HCMV UL50-53 inh
O=c1cc(CN2CCN(CCO)CC2)nc2nc(-c3ccccc3)[nH]n12	·	·	95	-19
Cc1nnc(SCC(=O)c2cc(C)n(C(C)c3ccccc3)c2C)n(N)c1=O (stereo not drawn)	81	90	·	-14
CCN(CC)CCOC(=O)c1ccc(NC(=O)Cn2ncc3c2-c2cc(C)ccc2OC3)cc1	103	80	101	-3
CN(Cc1ccccc1)C(=O)CSc1nc(-c2ccccc2)nc2cc(=O)[nH]n12	·	·	101	-38
CC(C)OCC(O)CNc1ccccc1 (stereo not drawn)	90	82	101	-21
Cc1ccc(NC(=O)Cn2c(=O)c(C(F)(F)F)nc3ccccc32)c(C)c1	90	85	98	·
NC(CCc1ccccc1Cl)c1ccc2c(c1)OCCO2 (stereo not drawn)	104	85	102	-26
C=Cc1ccc(Cn2nc3n(Cc4ccccc4)c(=O)c4ccc(C(=O)NC5CCCC5)cc4n3c2=O)cc1	·	·	107	-37
COc1ccc(NC(=O)CCc2c(C)nn(-c3ccc(N4CCCCC4)nn3)c2C)cc1Cl	77	83	97	·
Cc1nc(-c2sc3ccc(Cl)cc3c2C)cs1	85	93	98	-16
Cc1ccc(/C=C/c2onc(C)c2S(=O)(=O)N2CCC(C(=O)Nc3cccc(C#N)c3)CC2)cc1	93	93	99	·
CC(C#N)Oc1ccc(C(=O)c2ccccc2)cc1 (stereo not drawn)	106	99	·	8
CN(C)c1ccc(CNC(=O)c2cccn2-c2nnc(N3CCCCC3)s2)cc1	80	93	96	·
Cc1c2c(cc3c4c(c(=O)oc13)CCCC4)CN(CCc1ccc(F)cc1)CO2	107	84	102	·
Cc1cc(C)c(NC(=O)CCCN2CCCC2)c(C)c1	90	93	·	10
C=CCn1c(=O)n(CC=C)c(=O)n(CC(=O)NC(C)COC)c1=O (stereo not drawn)	100	95	·	-37
CCOc1ccc(NC(=O)C(=O)NCCc2ccccc2)cc1	98	90	107	10
CC(=O)Nc1nonc1-c1nc2ccccc2n1Cc1ccccc1Br	104	93	113	2
CCOc1nc(Nc2ccc(OC)cc2)nc(N2CCOCC2)n1	95	84	104	-2
CCOC(=O)N1CCc2c(sc(NC(=O)CN3CCc4ccccc43)c2C#N)C1	113	89	104	-14
CCN(CC)C(=O)c1cc(-c2ccc(O)cc2)on1	106	77	94	-3
CCc1ccc(-n2c(=O)c3cccnc3n2CC(=O)Nc2ccccc2C(F)(F)F)cc1	91	73	101	·
CC(C)=NNc1nc2ccccc2[nH]1	78	80	98	-15
S=C(NCc1ccco1)NCc1cccs1	93	99	·	-25
O=C(Cn1ncc2c([nH]c3ccccc32)c1=O)N(Cc1ccco1)C1CCCC1	107	100	108	-7
CCn1cc(C(=O)N2CCCCCC2)c(=O)c2cc(S(=O)(=O)N3CCCCC3)ccc21	84	84	104	-18
CC(C)C(=O)OCC(=O)Nc1ccc2c(c1)CCC2	88	91	·	-25
CCS(=O)(=O)c1ncc(N(Cc2ccccc2)Cc2ccco2)c(C(=O)Nc2ccc(C)c(C)c2)n1	103	84	98	-37
CC(C)CCNC(=O)CN1C(=O)c2cccnc2Oc2ccccc21	97	91	104	-8
O=C1C(C=Nc2ccccc2)=C(O)c2ccccc21	119	90	100	-36
CCOC(=O)C1=C(CN2CCN(c3ccc(Cl)cc3)CC2)NC(=O)NC1c1ccc(OC)cc1 (stereo not drawn)	105	92	106	·
CC(NC(=O)CN1C(=O)c2cccnc2Oc2ccc(Cl)cc21)c1ccccc1 (stereo not drawn)	123	90	106	·
Cc1cc(C(=O)Nc2sc(C)c(C)c2C#N)cs1	116	108	115	-5
O=C(NCCC(=O)N1CCCC1)Nc1ccc(Cl)c(Cl)c1	114	94	·	-19
CC(CC(=O)NCc1ccccc1)C1CCCO1 (stereo not drawn)	102	90	104	·
O=C(O)CC(C(=O)O)c1ccc(F)cc1 (stereo not drawn)	92	90	·	-6
Cc1cc(C)nc(-n2nc(C)c3c2NC(=O)CC3c2cc(F)ccc2F)n1 (stereo not drawn)	98	81	100	-31
CCN1CCCC1CNc1nc2ccc(Cl)cc2n2cnnc12 (stereo not drawn)	98	88	101	·
COc1ccccc1NC(=O)COc1ccc(-c2nn(C)c(=O)c3ccccc23)cc1	105	87	101	-32
Cc1ccc(OCCOn2nnc3ccc(S(=O)(=O)N4CCOCC4)cc32)cc1	99	83	·	-20
CC1(C)Cc2nc3sc(C(=O)NN)c(N)c3cc2CO1	73	93	113	-63
CCOc1cc(C(=O)Nc2ccc(S(=O)(=O)Nc3cc(OC)nc(OC)n3)cc2)cc(OCC)c1OCC	88	89	108	-8
O=C(O)COc1ccccc1S(=O)(=O)C(F)F	97	95	100	-12
CCOc1ccc(CCNC(=O)CN2C(=O)C(CC)Oc3ccccc32)cc1OCC (stereo not drawn)	117	92	101	·
Cc1ccccc1CSc1nc2nc(C)c(Cc3ccccc3)c(C)n2n1	122	83	98	·

Results in HCMV UL50-53 inh, GIV Gai3 FP and Sa growth 42C second temp (5 entries from above):
mol | HCMV UL50-53 inh | GIV Gai3 FP | Sa growth 42C second temp
CCOc1ccc(CCNC(=O)CN2C(=O)C(CC)Oc3ccccc32)cc1OCC (stereo not drawn) | · | 101 | 92
Cc1ccc(OCCOn2nnc3ccc(S(=O)(=O)N4CCOCC4)cc32)cc1 | -20 | · | 83
O=C(NCCC(=O)N1CCCC1)Nc1ccc(Cl)c(Cl)c1 | -19 | · | 94
CC1(C)Cc2nc3sc(C(=O)NN)c(N)c3cc2CO1 | -63 | 113 | 93
CCOC(=O)C1=C(CN2CCN(c3ccc(Cl)cc3)CC2)NC(=O)NC1c1ccc(OC)cc1 (stereo not drawn) | · | 106 | 92

New compounds follow.
SMILES	Sa growth 42C	Sa growth 42C second temp	GIV Gai3 FP	HCMV UL50-53 inh
COc1ccc(NC(=O)c2sc3nc(-c4cccs4)ccc3c2N)cc1OC	88	76	108	-39
O=C(CCN1C(=O)/C(=C/c2ccc(Cl)cc2)SC1=S)Nc1cc([N+](=O)[O-])ccc1O	·	·	97	-17
O=C(O)/C=C/c1ccc(-c2ccccc2)s1	98	102	·	-47
CCOC(=O)c1cccc(NC(=O)c2cc3c(Cl)nc4ccc(C)cc4c3s2)c1	·	·	108	-3
O=C(COc1ccccc1)ON1C(=O)CCC1=O	93	91	107	0
COc1cc(C(=O)NC(C(C)C)C(C)C)cc(OC)c1OC	95	99	104	-29
CC(C)CCNC(=O)c1ccc2c(c1)N(Cc1ccccc1F)C(=O)c1ccccc1S2=O (stereo not drawn)	94	86	103	-33
COc1cc(Cl)c(C)cc1NC(=O)CCc1nc2cccnc2n1-c1ccccc1	116	85	112	-20
Cc1nn(CC(=O)N2CCC(C)CC2)c(C)c1S(=O)(=O)N1CCOCC1	108	95	·	-6
N#CCc1ccc(OCc2cc(C(F)(F)F)cc(C(F)(F)F)c2)cc1	86	84	101	-13
CC1=C(c2ccc(C)c(C)c2)S(=O)(=O)N(Cc2ccc(C(=O)NCc3cccc(C)c3)cc2)C1=O	100	91	98&99	-25&11
C=CCOC(=O)c1sc(N2CCCC2=O)c(C(=O)OCC)c1C	114	99	·	-8
CCSc1nc(N)c(C#N)c(-c2ccco2)c1C#N	95	74	108	-1
CCOC(=O)C1CCCN(c2nc3ccccc3nc2C(C#N)C(=O)OC)C1 (stereo not drawn)	101	97	·	-34
Cc1[nH]c(=O)[nH]c(=O)c1S(=O)(=O)N1CCC(C(=O)NC(C)c2ccccc2)CC1 (stereo not drawn)	100	87	96	·
Cc1cccc(N2CCN(C(=O)c3ccc(CS(=O)c4cccc(Cl)c4)o3)CC2)c1C (stereo not drawn)	92	38	108	·
CCc1ccc2oc(-c3ccc(NC(=O)c4ccc5c(c4)OCCO5)cc3)nc2c1	·	·	119	2
CCOC(=O)N1CCc2c(sc3c2c(=O)n(-c2ccc(CC)cc2)c(=O)n3CC(=O)NCC2CCCO2)C1 (stereo not drawn)	95	86	103	0
CC(C)CC(=O)n1c(=O)oc2ccccc21	97	101	105	6
CCC(C)n1c(=O)c2sccc2n2c(CCCC(=O)Nc3ccc(F)cc3)nnc12 (stereo not drawn)	104	88	100	·
O=C1CCC(C(=O)NCCc2ccc(Cl)cc2)=NN1	105	100	·	-33
COc1ccccc1NC(=O)C(C)SC1CCCC1 (stereo not drawn)	79	92	·	-11
OCc1nc2ccccc2n1Cc1ccccc1Cl	124	84	105	-6
Nc1nc(SCc2ccccc2)n[nH]1	85	97	98	-2
CCOC(=O)c1cc2n(n1)CC(C)(C(=O)NC1CCCC1)N(c1ccc(NC(C)=O)cc1)C2=O (stereo not drawn)	·	·	96	-4
COc1cccc(NC(=O)CSCc2nc(-c3ccc(Cl)cc3)no2)c1	·	·	101	-32
O=C(NCCc1ccccc1)N1CCn2cccc2C1c1ccccc1 (stereo not drawn)	85	80	111	-39
CCc1nnc(NC(=O)CSc2nc3c([nH]c4ccccc43)c(=O)n2-c2ccc(C)cc2)s1	113	98	102	·
COc1ccc(C2C(C(=O)O)CC(=O)N2c2ccc(OC)cc2)cc1 (stereo not drawn)	101	93	103	-7
CC1(C)CC(=O)C2=C(C1)Nc1cc(C(=O)c3ccccc3)ccc1NC2c1ccc([N+](=O)[O-])cc1 (stereo not drawn)	·	·	102	-15

A different layout for some results above:
SMILES | Sa growth 42C | Sa growth 42C second temp | GIV Gai3 FP | HCMV UL50-53 inh
O=C1CCC(C(=O)NCCc2ccc(Cl)cc2)=NN1 | 105 | 100 | · | -33
COc1ccccc1NC(=O)C(C)SC1CCCC1 (stereo not drawn) | 79 | 92 | · | -11
OCc1nc2ccccc2n1Cc1ccccc1Cl | 124 | 84 | 105 | -6
Nc1nc(SCc2ccccc2)n[nH]1 | 85 | 97 | 98 | -2
CCOC(=O)c1cc2n(n1)CC(C)(C(=O)NC1CCCC1)N(c1ccc(NC(C)=O)cc1)C2=O (stereo not drawn) | · | · | 96 | -4
COc1cccc(NC(=O)CSCc2nc(-c3ccc(Cl)cc3)no2)c1 | · | · | 101 | -32
O=C(NCCc1ccccc1)N1CCn2cccc2C1c1ccccc1 (stereo not drawn) | 85 | 80 | 111 | -39

Remaining list, next part.
SMILES	Sa growth 42C	Sa growth 42C second temp	GIV Gai3 FP	HCMV UL50-53 inh
CCOC(=O)c1noc2ncnc(NCCc3ccccc3)c12	103	92	103	-13
Cn1c(-c2nnc(SCC(=O)NCc3ccccc3)o2)cc2ccccc21	·	·	100	-17
CCn1c(-c2ccc(OC)cc2)csc1=Nc1ccc(NC(C)=O)cc1	102	96	99	1
Cc1ccc(-c2onc3ccc(C(=O)NCCO)cc23)cc1	89	51	104	-148
O=C(NCc1cn2ccccc2n1)c1ccccc1F	103	95	·	-4
CCN(c1ccccc1)S(=O)(=O)c1ccc(NC(=O)c2cc(=O)c3cc(C)ccc3o2)cc1	110	91	104	-11
Cc1cc(OCC(F)(F)C(F)(F)C(F)(F)C(F)F)nc(N)n1	105	108	107	-2
CCOc1ccc(NC(C)C(=O)N/N=C/c2ccc(N(C)C)cc2)cc1 (stereo not drawn)	98	95	104	2
COC(=O)c1ccc(-n2cccc2)cc1	88	79	106	-6
CCn1c(CCCCCCN)nnc1SC	102	79	·	-36
COc1ccc(C(CNC(=O)COc2cc(C)c(Cl)c(C)c2)N2CCCCC2)cc1 (stereo not drawn)	89	89	100	-42
O=C(Nc1ccccc1C(=O)NCCN1CCOCC1)c1ccc(Br)cc1	112	81	98	-16
CS(=O)(=O)N1CCNCC1	98	90	100	-21
Nc1n[nH]c(=O)c2cc(-c3ccc(Cl)cc3)[nH]c(=O)c12	100	93	107	0
COc1ccccc1NC(=O)CCn1cnc2onc(-c3ccc(F)cc3)c2c1=O	110	85	102	·
N#Cc1ccc(-c2c(N)oc(-c3cccs3)c2C#N)cc1	104	92	112	-2
C=CCOc1ccc(NC(=O)c2cccs2)cc1	102	96	107	1
CCNS(=O)(=O)c1ccc(CCC(=O)NCc2ccco2)cc1	118	102	106	-1
N#Cc1c(/N=C/c2ccccc2)sc2c1CCCC2	65	28	106	·
O=C(c1ccc(S(=O)(=O)N2CCCCC2)cc1)N1CCN(Cc2ccc3c(c2)OCO3)CC1	81	83	100	-26
CN(c1ccccc1)S(=O)(=O)c1ccc(N2CCCCS2(=O)=O)cc1	103	86	105&109	-2&-2
CSc1[nH]c(=O)[nH]c(=O)c1C#N	99	82	95	-31
CCOC(=O)C1CCN(C(=O)c2csc(Nc3ccc(C)cc3)n2)CC1	·	·	103	-10
c1ccc(Cn2c3ccccc3c3nnc(SCc4ccc5nonc5c4)nc32)cc1	98	91	102	-9
COC(=O)c1sccc1N(Cc1ccccc1)S(C)(=O)=O	107	94	106	-4
Cc1nc2sccn2c1C(=S)NC(=O)c1ccccc1F	98	92	·	-70
CC(C)(C)S(=O)(=O)Cc1noc(-c2ccc(F)cc2Cl)n1	101	102	98	4
Cc1occc1-c1nnc(SC(C)C(=O)NC2CCCc3ccccc32)n1-c1ccccc1 (stereo not drawn)	103	97	·	-16
O=C(Cn1ccc(=O)[nH]c1=O)Oc1ccc(Br)cc1Cl	88	87	·	-4
COc1ccc(-c2n[nH]c3c2C(c2ccc(O)cc2)N(c2ccc(Br)cc2)C3=O)cc1 (stereo not drawn)	86	98	107	-3
Oc1c(Br)cc(Br)cc1-c1nc2ccccc2s1	104	100	103	-22
Cc1ccc(C(C)C)c(OCc2nc3ccc(C)cc3[nH]2)c1	·	·	105	-31
